Source: PubChem (National Center for Advancing Translational Sciences (NCATS))
Cruzain inh noDet = inhibitors of Trypanosoma cruzi cruzain without detergent; P25779; purified cruzain, Z-FR-AMC fluorescence, no detergent; Potency, µM, inactives show max response, negative = inhibition, most hits filed as inhibitors; 200,000 tested, 2.3% active; active means well fitted curve in the direction sought with a large enough effect; inconclusive means small, poorly fitted or top-dose-only effect, or another doubt; inactive means no such curve, though single readings can be large; an effect the other way counts as inactive or inconclusive;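 further: plate controls were enzyme without inhibitor for no effect and buffer without enzyme for full effect; nearly all actives have a fitted effect of over 40% in size; top concentration of the series not given in the record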
Target sequence (P25779 123-467 limits assumed): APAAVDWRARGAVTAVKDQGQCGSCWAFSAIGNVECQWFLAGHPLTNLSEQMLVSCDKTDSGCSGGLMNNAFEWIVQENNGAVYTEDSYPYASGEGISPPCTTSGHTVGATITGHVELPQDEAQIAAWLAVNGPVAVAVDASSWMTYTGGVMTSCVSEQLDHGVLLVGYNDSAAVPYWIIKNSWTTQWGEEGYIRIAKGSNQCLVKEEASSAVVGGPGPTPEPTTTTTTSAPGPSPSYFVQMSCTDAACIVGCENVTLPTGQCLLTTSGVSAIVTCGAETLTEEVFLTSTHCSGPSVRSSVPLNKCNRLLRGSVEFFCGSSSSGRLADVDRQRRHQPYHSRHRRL
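Detergent-free condition (0.00005% Triton X-100) in acetate buffer pH 5.5 with DTT. 1.5 nM enzyme and compound were pre-mixed 15 min, then 2 uM Z-FR-AMC substrate added; reaction progress from fluorescence change between first and third reads (60 s).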
Lassa entry inh = inhibitors of Lassa virus binding or cell entry; Lassa virus pseudotype entry inhibition, cell reporter; control for the full effect not named in the record; Potency, µM (titrated, usually from 37.9 µM), without a hit: at the highest dose activity change, negative = inhibition, actives largely listed as inhibitors; 300,000 tested, 1.2% active; AID 540256; active means well fitted inhibition curve with a large enough effect; inconclusive means small, poorly fitted or top-dose-only effect, or effect the other way; inactive means flat fitted curve, though single readings scatter; tested in HEK293 cells; further: on the % scale 0 is the no-effect control and ±100 the full control effect; nearly all actives have a fitted effect of over 50% in size; luciferase read-out
StopGo reporter = lowers the luciferase signal of an FMDV 2A StopGo reporter; human cells with a luciferase reporter of 2A StopGo recoding; control for the full effect not named in the record; Potency, µM (series often up to 57.9 µM), inactives show at the highest dose signal change, negative = less light; 410,000 tested, 1.2% active; active = well fitted falling curve with a large enough effect; inconclusive = small, poorly fitted or top-dose-only effect; inactive = no such curve, though single readings can be large or run the other way; tested in HEK293T cells; further: on the % scale 0 is the no-effect control and ±100 the full control effect; nearly all actives have a fitted effect of over 45% in size; luciferase light after 4 h
SARS PLpro yeast = blocks SARS-CoV papain-like protease in a yeast assay; S. cerevisiae expressing SARS-CoV PLpro, growth rescue; control for the full effect not named in the record; Potency, µM (titrated, usually from 32.9 µM), for inactives: top-dose activity, positive = growth rescue; AID 485353; 330,000 tested, 0.19% active; further: 0% is about no effect; nearly all actives have a fitted effect of over 55% in size; growth read by luminescence after 48 h
MARV entry inh = inhibitors of Marburg virus binding or cell entry | Marburg virus pseudotyped entry inhibition, cell reporter; control for the full effect not named in the record; about a third of the inactives were read at about 46 µM | Potency, µM (titrated, usually from 37.8 µM), without a hit: top-dose activity change, negative = inhibition, usual class: inhibitors | 300,000 tested, 1.8% active; active = well fitted inhibition curve with a large enough effect; inconclusive = small, poorly fitted or top-dose-only effect, or effect the other way; inactive = flat fitted curve, though single readings scatter; tested in HEK293 cells; about a fifth of its hits are not listed in these tables; further: on the % scale 0 is the no-effect control and ±100 the full control effect; luciferase read-out
RE007 growth inh = less growth of the S. pombe RE007 Vpr strain; S. pombe RE007 Vpr strain, BacTiter-Glo ATP luminescence, 24 h; control for the full effect not named in the record; Potency, µM (highest dose often 92.2 µM), for inactives: top-dose activity change, negative = less growth; 360,000 tested, 0.21% active; active = well fitted falling curve with a large enough effect; inconclusive = small, poorly fitted or top-dose-only effect; inactive = no such curve, though single readings can be large or run the other way;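 further: on the % scale 0 is the no-effect control and ±100 the full control effect; nearly all actives have a fitted effect of over 50% in size; the assay follows cell death caused by Vpr and the record does not say whether a fall means rescue or toxicity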
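Fission yeast RE007 carrying one integrated HIV-1 vpr copy, seeded at OD 0.01 in PMG+AL medium with 23 nL pinned compound. Grown 24 h at 30 degrees; viability read by BacTiter-Glo luminescence after 5 min.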
Cruzain Triton = blocks cruzain activity in presence of Triton detergent; Potency, µM, for inactives: max response, negative = inhibition, hits mostly inhibitors; AID 1478; 200,000 tested, 0.43% active; P25779; purified cruzain, Z-FR-AMC fluorescence, 0.01% Triton; active means well fitted curve in the direction sought with a large enough effect; inconclusive means small, poorly fitted or top-dose-only effect, or another doubt; inactive means no such curve, though single readings can be large; an effect the other way counts as inactive or inconclusive;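 further: plate controls were neutral wells for no effect and buffer without enzyme for full effect; nearly all actives have a fitted effect of over 40% in size; top concentration of the series not given in the record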
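Detergent-containing arm of a paired screen for aggregation-based inhibition: 0.01% Triton X-100 present. Cruzain at 1.5 nM cleaved 2 uM Z-FR-AMC at pH 5.5 with 5 mM DTT; AMC fluorescence gain over 60 s measured activity.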
NS1 function inh = blocks influenza NS1 protein function; 270,000 tested, 0.4% active; Potency, µM (top dose mostly 46.1 µM), without a hit: at the highest dose activity, positive = more growth; S. cerevisiae slowed by influenza A NS1, growth recovery by OD600; AID 2326; further: actives are rising curves; nearly all actives have a fitted effect of over 50% in size
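OD600 was taken as the measure of yeast growth restored by compound in an NS1-expressing S. cerevisiae strain. Cells had been washed out of glucose medium and diluted 1:100 into galactose -URA medium, pH 6.0.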
Starred values were filed as active, the others as inactive; ? = inconclusive; / = no result given; & = joins results of further samples; [ ] = remark or other dose. Unless noted, the call rests on the fitted dose curve; in most records, active means well fitted rising curve with a large enough effect; inconclusive means small, poorly fitted or top-dose-only effect; inactive means no such curve, though single readings can be large or run the other way. Potency means the concentration at half of the fitted maximal effect.

compound,Cruzain inh noDet,Lassa entry inh,StopGo reporter,SARS PLpro yeast,MARV entry inh,RE007 growth inh,Cruzain Triton,NS1 function inh
C=CCN1C(=O)CSc2ccc(C(=O)NC(C)c3ccccc3)cc21 (stereo not given),/,/,?,1%,/,0%,/,-4%
CCN1CCN(CCCNC(=O)CN2C(=O)c3cccnc3Oc3ccc(Cl)cc32)CC1,/,26%[46.1 µM],-9%,2%,1%[46.1 µM],-3%,/,-2%
COc1cc(NS(C)(=O)=O)cc(OC)c1OC,/,?,-12%,0%,2%,-11%,/,/
COc1cccc(OCc2cc(/C=N/n3cncn3)ccc2OC)c1,/,-12%[46.1 µM],14%,0%,-27%[46.1 µM],-15%,/,5%
Cc1cc(NC(=O)CSc2nnc(NCc3ccccc3)s2)no1,/,/,19%,0%,/,-1%,/,3%
COc1cccc(NCc2nnc(SCC(=O)NC3CCS(=O)(=O)C3)n2C2CCCCC2)c1 (stereo not given),/,-6%,-8%,0%,16%[46.1 µM],2%,/,/
Cc1cccc2cc(CN(CC3CCCO3)S(=O)(=O)c3ccccc3)c(=O)[nH]c12 (stereo not given),/,/,-1%,1%,/,11%,/,-2%
O=C(NCc1ccc(F)cc1)C1CCCN1C(=O)Nc1ccc(Cl)cc1 (stereo not given),/,/,32%[activator],1%,/,-29%,/,4%
O=C(Oc1ccc(=O)n(-c2ccccc2)n1)c1cccc(Cl)c1,5%,-3%,-23%,2%,17%,-19%,1.9%,-26%
C=CCN(c1ccccc1OC)S(=O)(=O)c1ccc(Cl)c(C(=O)Nc2ccc(N3CCOCC3)cc2)c1,/,?,-6%,0%,?,-23%,/,/
O=C(NCC1CCCO1)C1CCCN(S(=O)(=O)c2ccc(F)cc2)C1 (stereo not given),/,?,-18%,3%,8%,0%,/,18%
CCC(C)[C@H](NC(=O)C1CC(=O)N(c2ccc(OC)cc2)C1)C(=O)N1CCCCC1 (stereo not given in full),/,-25%[46.1 µM],14%,-18%,-3%[46.1 µM],4%,/,?
N#Cc1ccc(CSc2nnc(NC(=O)C3CCCO3)s2)cc1 (stereo not given),-6%,4%,-20%,2%,-13%[46.1 µM],-4%,-2.0%,-10%
CCOc1cc(/C=C(/C#N)c2nc3ccccc3[nH]2)ccc1OCc1ccc(C(=O)O)o1,?,4%,8%,-1%,-4%,-7%,-6.5%,?
Cc1cccc(NC(=O)CN2C(=O)S/C(=C\c3cc(C)n(C)c3C)C2=O)c1,-26%,0%,-19%,17%,-16%,/,-3.8%,?
CCc1ccc2c(c1)cc(C)c1nnc(SCC(=O)Nc3cc(OC)c(OC)cc3C(=O)O)n12,/,15%,-11%,1%,1%,10%,/,2%
NC1=C([N+](=O)[O-])C(c2ccc3c(c2)OCO3)c2c(c3ccccc3oc2=O)O1 (stereo not given),/,/,-4%,-3%,/,-4%,/,-32%
O=C(C[n+]1cccc(/C=N/O)c1)N(Cc1ccccc1)Cc1ccccc1,/,9%,10%,-1%,-5%[46.1 µM],-12%,/,2%
CCOc1ccc2nc(-c3ccccc3)nc(SCC(=O)Nc3ncc(C)s3)c2c1,?,-1%,-16%,?,0%,?,5.5%,3%
NS(=O)(=O)c1ccc(CCNC(=O)c2ccc3ccccc3n2)cc1,/,?,61%[activator],-2%,6%[46.1 µM],16%,/,-3%
CCN(CC)C(=O)CN(C#N)c1nc(C)cc(C)n1,-7%,22%[46.1 µM],-1%,2%,4%[46.1 µM],77%,-0.9%,3%
Cc1ccc(N2C(=O)NC(=O)/C(=C\c3ccoc3)C2=O)cc1,/,7%[46.1 µM],?,1%,2%[46.1 µM],2%,/,/
CC(=O)Nc1ccc(S(=O)(=O)N(C)CC(=O)NC2CCCCCCC2)cc1,/,-16%,-21%,-1%,-3%,3%,/,/
COc1cc2c(cc1OC)C(C)NCC2 (stereo not given),5%&-3%,/,-23%&6%,/,/,2%,-0.5%&1.4%,/
CCN1C(=O)/C(=C\c2cn(CCC#N)nc2-c2ccc(F)cc2)SC1=S,16%,-8%,?,-3%,?,-12%,-5.1%,1%
CCCCc1c(O)nc(N2CCN(Cc3ccccc3)CC2)[nH]c1=O,3%,4%,2%,2%,10%,20%,-3.8%,-4%
CC(C(=O)Nc1ccc(Cl)cc1)N1C(=O)NC2(CCCC2)C1=O (stereo not given),/,20%[46.1 µM],1%,-4%,-7%[46.1 µM],-13%,/,0%
COc1ccc(OC)c(NC(=O)c2nnn(CC(=O)Nc3ccc4c(c3)OCO4)c2N)c1,/,/,5%,3%,/,1%,/,6%
CC(C)S(=O)(=O)c1cnc(-c2ccccn2)nc1N,/,?,37%[activator],1%,7%,12%,/,3%
CCSc1nnc(Cc2cc(=O)[nH]c(=O)[nH]2)n1-c1cc(C)ccc1C,2%,15%,2%,-3%,-15%,13%,-2.4%,5%

The last 2 compounds of the section before come first, to join the parts:
compound,Cruzain inh noDet,Lassa entry inh,StopGo reporter,SARS PLpro yeast,MARV entry inh,RE007 growth inh,Cruzain Triton,NS1 function inh
CC(C)S(=O)(=O)c1cnc(-c2ccccn2)nc1N,/,?,37%[activator],1%,7%,12%,/,3%
CCSc1nnc(Cc2cc(=O)[nH]c(=O)[nH]2)n1-c1cc(C)ccc1C,2%,15%,2%,-3%,-15%,13%,-2.4%,5%
CN(C)/C=C(\C#N)S(=O)(=O)c1ccc(Cl)cc1,/,15%,0%,1%,?,4%,/,8%
Cc1ccc(CNC(=O)CCCn2c(=O)c3ccccc3n(CC(=O)C(C)(C)C)c2=O)cc1,?,?,4%,/,1%[46.1 µM],/,-2.4%,/
Cc1ccc(N(Cc2cc3ccccc3[nH]c2=O)C(=O)c2cccs2)cc1,-11%,?,?,12%,?,0%,-8.5%,21%
Cc1cc(C)n(-c2nc(-c3ccccc3)cs2)n1,-5%,26%,55%[activator],-14%,5%[46.1 µM],-12%,-5.4%,-13%
Cc1ccc(C)c(OCC(=O)N/N=C\c2cccn2C)c1,/,6%,3%,-1%,-15%[46.1 µM],-9%,/,/
COc1ccc(-c2cccc(C(=O)Nc3cccc(C(=O)O)c3)c2)cc1,0%,-1%,-10%,-4%,?,-4%,-3.8%,11%
N#Cc1cc(Oc2cccnc2)c(Oc2cccnc2)cc1C#N,6%,1%,-9%,0%,1%,12%,-8.1%,0%
Cc1ccc(S(=O)(=O)Nc2ccc(N3CCN(C)CC3)nc2)cc1,/,21%[46.1 µM],13%,1%,2%[46.1 µM],7%,/,/
C=C(C)COc1ccc2c(C)c(CC(=O)N3C[C@H]4C[C@@H](C3)c3cccc(=O)n3C4)c(=O)oc2c1C,/,/,-1%,-7%,/,6%,/,-1%
C=CCOc1ccc(/C=C/C(=O)OCC(=O)NCCCc2ccccc2)cc1,/,?,6%,0%,15%[46.1 µM],-10%,/,/
O=C(NCCCN1CCOCC1)c1c(O)c2ccccc2[nH]c1=O,-1%,0%,6%,?,0%,-8%,-6.9%,-6%
Cc1nc(N)c(S(=O)(=O)c2ccccc2)c(Nc2ccc(Br)cc2)n1,-6%,-7%[46.1 µM],-22%,/,7%[46.1 µM],/,-0.1%,/
CCN1CCN(c2oc(-c3ccc(COc4ccccc4C)o3)nc2C#N)CC1,15%,?,-25%,/,?,/,-4.6%,/
Cc1ccc(C(C)(C)C)c(OCCCCN2CCCC2)c1,10%,?,2%,-19%,?,-11%,5.4%,-21%
CCOc1ncccc1C(=O)OCC(=O)NCCc1ccc(OC)cc1,-2%,11%,-3%,-3%,23%,-7%,-0.2%,-7%
COc1ccc(S(=O)(=O)NCc2ccc3c(c2)OCO3)cc1OC,/,/,22%,0%,/,-6%,/,0%
CC(C)NC(=O)c1cccc(C(F)(F)F)c1,4%,-1%,1%,-12%,15%,-6%,4.5%,-2%
COC(=O)c1cc(=O)n2c(-c3ccc(OC)cc3)csc2n1,-1%,-20%,1%,1%,11%,-4%,4.7%,2%
CCc1ccc2nc(N(Cc3cccnc3)C(=O)c3cccs3)sc2c1,3%,-3%[46.1 µM],21%,/,/,/,0.9%,/
Cc1cc(Cl)cc2sc(NC(=O)C3CC3)nc12,/,/,13%,3%,/,-1%,/,-1%
CS(=O)(=O)N1CCC(C(=O)Nc2ccccc2)CC1,1%,-3%,/,-5%,-7%,0%,-0.8%,2%
COc1cc(/C=N/NC(=O)CCOc2ccccc2C)cc(Br)c1O,/,0%,-15%,5%,-24%[46.1 µM],-3%,/,/
C=CCSc1nc(N)cc(=O)[nH]1,/,/,-12%,0%,/,2%,/,7%
Cc1c(NC(=O)c2ccc(-c3ccc(F)cc3)o2)cccc1-c1nc2ncccc2o1,-2%,-8%[46.1 µM],0%,/,/,/,-0.1%,/
CS(=O)(=O)N(CC(=O)N1CCN(Cc2ccc3c(c2)OCO3)CC1)c1ccc2c(c1)OCO2,-3%,?,-7%,1%,-4%,1%,1.1%,-4%
O=[N+]([O-])c1ccccc1OC/C(=N\O)c1ccccc1,/,5%[46.1 µM],20%,-4%,?,-25%,/,-4%
CCC1(C)Cc2sc3c(=O)[nH]c(=S)[nH]c3c2CO1 (stereo not given),/,16%,-4%,1%,?,-1%,/,/
COc1ccc(-c2cc(CNS(=O)(=O)c3ccc(NC(C)=O)cc3)on2)cc1,/,2%,-13%,0%,?,-11%,/,-7%
Fc1ccc(-c2noc(-c3ccc4c(c3)CCO4)n2)cc1,/,10µM*,-44%,-1%,?,-2%,/,1%
